Screens from PubChem.
HIV TAR-Tat – TAR RNA-Tat peptide displacers, HIV-1, primary screen, biochemical, FRET, FAM/TAMRA-labeled Tat; HIV-1 TAR RNA, Tat peptide displacement FRET; active compounds read high; z-score (no concentration beside the values); hit rate 0.6% among 100,000;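 also: score is relative to mean and SD of negative controls; some compounds called inactive have numbers as strong as hits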
CDC25B-CDK2 inh – primary biochemical HTRF screen for blockers of M-phase inducer phosphatase 2 binding to CDK2/cyclin A. HTRF CDC25B-CDK2/CyclinA binding, anti-His/anti-Flag; active compounds read high. z-score (concentration not given with the values). hit rate 0.72% among 94,000. P30305+P24941;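 also: score is relative to mean and SD of negative controls; strong numbers were not always called active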
An asterisk follows results filed as active; / = no result given.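 The calls were made as follows: active = z-score from 3 up in half or more of its runs; inactive = the rest.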

Values run as follows: HIV TAR-Tat, CDC25B-CDK2 inh
> COc1ccc(Cc2nn3c(C(C)(C)C)nnc3s2)cc1
→ 0.37, 0.16
> c1cncc(Nc2nnc(-c3cccc4ccccc34)o2)c1
→ /, -2.31
> COc1ccc(S(=O)(=O)O/N=C(\C)c2ccc(F)c(F)c2)cc1OC
→ /, -1.55
> Cc1ccc(C2Cc3cc(C(=O)NC4CCCC4)ccc3C(=O)O2)cc1 (centres undefined)
→ -0.94, -0.95
> FC(F)(F)c1ccc(-c2noc(-c3ccccc3Br)n2)cc1
→ /, -0.16
> COc1ccc(-c2cnc3cc(C)nn3c2N)cc1
→ 0.01, -1.44
> CC1=C(c2ccc(Cl)cc2)S(=O)(=O)NC1=NC(C)c1ccccc1 (centres undefined)
→ 0.11, -1.66
> CN1C(=O)c2ccccc2S12OC(=O)c1cccc3cccc2c13 (centres undefined)
→ /, -1.84
> O=C(C1CC(=O)N(c2ccccc2)C1)N1CCN(c2ccc(-c3noc(C4CC4)n3)cc2)CC1 (centres undefined)
→ 0.33, /
> O=C(NCc1ccccn1)C1CCCN(c2nnc(N3CCCC3=O)s2)C1 (centres undefined)
→ 2.58, -1.21
> Cc1ccc(-c2nc(CNC(=O)NC(C)C)c(C)o2)cc1
→ -0.62, /
> COc1cc2c(cc1OC)-c1cc(Oc3cc(C)cc(C)c3)nc(=O)n1CC2
→ -3.46, -1.42
> O=c1c2cn[nH]c2[nH]c(=S)n1-c1ccccc1F
→ /, -3.45
> CCCCC(=O)OCc1cc(=O)n2c(C)csc2n1
→ 0.69, /
> COC(=O)c1ccc(S(=O)(=O)NNC(=O)c2c(O)c3sccc3[nH]c2=O)n1C
→ /, -1.35
> CCCn1c(Cn2ccnc2C)nc2cc(NC(C)=O)ccc21
→ 0.98, -0.02
> CN(C)c1nc2c(c(=O)n(C)c(=O)n2C)n1CC(O)COc1ccccc1 (centres undefined)
→ -0.21, -2.05
> COc1ccccc1CN1CCN(Cc2c[nH]c3ccccc23)CC1
→ 1.7, -0.52
> COc1cccc(/C=C/c2nc(C#N)c(N3CCN(C)CC3)o2)c1
→ 0.34, -1.48
> COc1ccc(NC(=O)CN2N=NC3C(=O)N(c4ccc(Br)cc4)C(=O)C32)cc1OC (centres undefined)
→ 0.37, /
> CC(=O)Nc1ccc(N2C(=O)CC(N3CCSCC3)C2=O)cc1 (centres undefined)
→ /, -2.5
> CCc1ccc(S(=O)(=O)c2nnn3c2nc(N2CCOCC2)c2sccc23)cc1
→ 0.39, /
> CCN(CCN(C)C)C(=O)c1cc2c(s1)-c1ccc(Cl)cc1S(=O)(=O)C2
→ 0.16, -2.56
> O=C(C1CC1)N1CCN(c2nc3cc(Br)ccc3n3cccc23)CC1
→ -2.44, 6.08
> CSc1nc2c(c(=O)[nH]1)C(c1cccnc1)C(C(=O)OC(C)C)=C(C)N2 (centres undefined)
→ /, 0.18
> CCOC(=O)c1c(C)[nH]c(C)c1S(=O)(=O)Nc1ccccc1
→ 0.06, /
> CC1CCC(NC(=O)CCC(=O)Nc2nc(-c3cc4ccccc4oc3=O)cs2)CC1 (centres undefined)
→ /, 1.36
> N#CCC(=O)NNC(=S)Nc1ccccc1
→ /, -1.83
> Cc1c(C(=O)N2CCCC2)oc2c1-c1nn(CC(=O)NCCCN3CCCCC3C)cc1CC2 (centres undefined)
→ -4.58, /
> Cc1ccc(Cn2c(CCN)nc3cccnc32)cc1
→ 0.64, /
> CCOC(=O)/C(C#N)=C/c1ccc(-c2cccs2)s1
→ /, -0.05
> Cn1c(=O)c2c(ncn2Cc2nnc(-c3ccccc3)o2)n(C)c1=O
→ /, -1.39
> CS(=O)(=O)c1noc(-c2ccc(Cl)cc2)c1C#N
→ /, -0.56
> O=S(=O)(NCCC(c1ccccc1)c1ccccc1)c1ccc(N2CCCCS2(=O)=O)cc1
→ 0.21, /
> O=C(O)c1cnccc1Sc1nc(-c2ccccc2)c(-c2ccccc2)[nH]1
→ /, -0.69
> CN(C)c1ccc(CNS(=O)(=O)c2cc(Br)cnc2N)cc1
→ 0.71, 1.08
> COC(=O)C1C(=O)NC(SC)=C(C#N)C1c1ccccc1OC (centres undefined)
→ /, -0.34
> CC(=O)N1c2c(cc(Br)cc2S(=O)(=O)NCc2ccc(C)cc2)CC1C (centres undefined)
→ /, 0.18
> Cc1ccc(-c2c(C)sc(NC(=O)C3C4CCC(O4)C3C(=O)O)c2C(=O)OC(C)C)cc1 (centres undefined)
→ /, -2.36
> CC(C)N(CCCNS(=O)(=O)c1ccc(-c2ccc(=O)[nH]n2)s1)Cc1ccccc1
→ 0.28, /
> O=C(NC(=S)Nc1ccc2c(c1)CCC2)c1ccccc1
→ /, -2.56
> NCC1OC(O[C@@H]2[C@H](O)C(OC3C(O)C(N)CC(N)C3OC3OC(CO)C(O)C(O)C3N)O[C@@H]2CO)C(N)C(O)C1O (some centres undefined)
→ /, -1.57
> COc1ccc(-c2cccc(NS(=O)(=O)c3ccccc3)c2)nn1
→ 1.53, /
> CCCS(=O)(=O)N1CCC(C(=O)NCCCN2CCCCC2C)CC1 (centres undefined)
→ /, -2.45
> OC(COc1c(F)cc(Br)cc1F)CN1CCN(c2cccc(Cl)c2)CC1 (centres undefined)
→ /, -1.81
> Cc1ccc(Nc2nc(N3CC(C)OC(C)C3)nc3c2cnn3C)cc1C (centres undefined)
→ 0.02, /
> Cc1ccc(S(=O)(=O)Nc2ccc(-c3nc(-c4ccc(C)cc4C)co3)cc2)cc1
→ 13.5, /
> C[C@@H]1O[C@@H](Oc2c(-c3ccc(O)c(O)c3)oc3cc(O)cc(O)c3c2=O)[C@@H](O)[C@H](O)[C@@H]1O
→ 3.62, /
> CCc1cc2c(=O)oc(-c3ccc(F)cc3)nc2s1
→ /, -0.94
> O=C(Nc1nnc(-c2ccc(F)cc2)s1)c1ccc(F)cc1
→ 0.47, -7.33

An excerpt of these results, with tabs.
compound	HIV TAR-Tat	CDC25B-CDK2 inh
NCC1OC(O[C@@H]2[C@H](O)C(OC3C(O)C(N)CC(N)C3OC3OC(CO)C(O)C(O)C3N)O[C@@H]2CO)C(N)C(O)C1O (some centres undefined)	/	-1.57
OC(COc1c(F)cc(Br)cc1F)CN1CCN(c2cccc(Cl)c2)CC1 (centres undefined)	/	-1.81
C[C@@H]1O[C@@H](Oc2c(-c3ccc(O)c(O)c3)oc3cc(O)cc(O)c3c2=O)[C@@H](O)[C@H](O)[C@@H]1O	3.62	/

More compounds follow:
Values run as follows: HIV TAR-Tat, CDC25B-CDK2 inh
> CN(C(=O)Cn1c(=O)oc2ccccc21)C1CCCCC1
→ -1.4, /
> Cn1c(=O)c2c(nc(CN3CCCCC3)n2CC(=O)c2ccccc2)n(C)c1=O
→ -0.97, -1.22
> CC(C)CC(=O)Nc1cc(F)c2nc(N3CCOCC3)ccc2c1
→ -0.2, /
> Cn1cc(S(=O)(=O)N2CCCC2)cc1C(=O)NCc1cccs1
→ 2.34, /
> COc1ccc(N2CCN(C3=C(C(=O)N4CCOCC4)S(=O)(=O)c4ccccc43)CC2)cc1
→ 1.15, /
> O=C(NCC(O)c1ccccc1)Nc1cccs1 (centres undefined)
→ /, -1.13
> COc1ccc(NS(=O)(=O)c2cccs2)cc1OC
→ -1.83, -1.42
> Cc1cc(C)c(NS(=O)(=O)c2cc3c(cc2C)N(C)CCO3)c(C)c1
→ 1.08, /
> Cc1ccc(-c2ccnc3c(C(=O)O)cnn23)cc1C
→ 0.35, 0.13
> CN1C(=O)C(C)(C)c2cc(S(=O)(=O)N3CCc4ccccc4C3)ccc21
→ 1.28, /
> Cc1ccc(-n2ncc3c2ncn2nc(COc4ccccc4C)nc32)cc1
→ 1.84, 1.61
> COc1cc(-c2nc3cc(C)ccn3c2Nc2ccc3c(c2)OCCO3)ccc1O
→ -2.01, -2.48
> CCOc1cc(Br)c(C2C(C(=O)OC)=C(C)NC3=C2C(=O)c2ccccc23)cc1OC (centres undefined)
→ -1.6, 3.6
> CN(C(=O)COc1cc(=O)n(C)c2ccccc12)c1ccc(Cl)cc1
→ /, -1.01
> Cc1cc(Nc2ccc(Oc3ccccc3)cc2)nc(-n2cc([N+](=O)[O-])cn2)n1
→ 1.03, /
> CC(C)C(=O)Nc1nnc2n1CCS2
→ 1.35, /
> CCc1ccc(C2C3=C(CCCC3=O)Nc3c(-c4ccccc4)c(C)nn32)cc1 (centres undefined)
→ 0.72, 0.33
> Cc1cn2c(=O)c(S(=O)(=O)Nc3ccc(F)c(F)c3)c(C)nc2s1
→ 0.42, /
> Cc1nc2c(cnn2-c2ccccc2)c(=O)n1-c1cccc2ccccc12
→ -0.91, -1.69
> CN1C(C(=O)Nc2cccc(O)c2)=CC(c2cccs2)=NS1(=O)=O
→ 2.86, -1.06

Rewritten bar-delimited: entries from further up.
Compound | HIV TAR-Tat | CDC25B-CDK2 inh
CCOc1cc(Br)c(C2C(C(=O)OC)=C(C)NC3=C2C(=O)c2ccccc23)cc1OC (centres undefined) | -1.6 | 3.6
CN(C(=O)COc1cc(=O)n(C)c2ccccc12)c1ccc(Cl)cc1 | / | -1.01
Cc1nc2c(cnn2-c2ccccc2)c(=O)n1-c1cccc2ccccc12 | -0.91 | -1.69
CCc1ccc(C2C3=C(CCCC3=O)Nc3c(-c4ccccc4)c(C)nn32)cc1 (centres undefined) | 0.72 | 0.33
COc1cc(-c2nc3cc(C)ccn3c2Nc2ccc3c(c2)OCCO3)ccc1O | -2.01 | -2.48
Cc1cc(Nc2ccc(Oc3ccccc3)cc2)nc(-n2cc([N+](=O)[O-])cn2)n1 | 1.03 | /

(next part)
Values run as follows: HIV TAR-Tat, CDC25B-CDK2 inh
> O=C1NC(=S)S/C1=C/c1ccc(Sc2ccc(Cl)cc2)c([N+](=O)[O-])c1
→ /, -0.98
> COc1ccc(Br)cc1CNC(=O)c1cnc2sc(N3CCCC3)nn2c1=O
→ 0.17, /
> CC1CC(C)CN(S(=O)(=O)c2ccc3c(c2)c(=O)c(C(=O)NC2CCCCC2)cn3C)C1 (centres undefined)
→ /, 0.62
> CC[C@H](CC[C@@H](C)[C@H]1CC[C@H]2[C@@H]3CC=C4C[C@@H](O)CC[C@]4(C)[C@H]3CC[C@]12C)C(C)C
→ 2.26, /
> COc1ccc(S(=O)(=O)[C@H]2CS(=O)(=O)C[C@@H]2NCCc2ccccc2)cc1
→ 0.64, -1.63
> Cc1ccc2c(c1)sc1ncc(NC(=O)c3ccccc3)c(=O)n12
→ 0.34, 0.75
> Cn1cc(S(=O)(=O)N2CCCC2)cc1C(=O)Nc1ccccc1F
→ 2.28, /
> Cc1ccc(C2Nc3ccccc3NC3=C2C(=O)CC(C)(C)C3)c(O)c1 (centres undefined)
→ 1.97, -0.77
> N#CC1=C(SCC(N)=O)NC(=O)CC1c1ccc(F)cc1 (centres undefined)
→ -1.99, -0.99
> CC1CC(=O)c2cnc3[nH]n(-c4ccccc4)c(=O)c3c2C1 (centres undefined)
→ -1.22, -3.19
> COc1ccc2c(=O)c(Oc3ccccc3)c(C(F)(F)F)oc2c1C
→ -1.65, -0.55
> CCCSc1nnc(Cn2c(=O)sc3ccccc32)n1C
→ /, -0.72
> O=C(COc1ccccc1F)OCc1cc(=O)n2ccsc2n1
→ 0.45, /
> CCCn1c(=O)oc2cc(NS(=O)(=O)c3ccc4oc(C(=O)OCC)c(C)c4c3)ccc21
→ 0.76, /
> O=C(CC1(CC2=NS(=O)(=O)c3ccccc3N2)CCCC1)NCCc1ccccc1
→ -0.12, /
> CC(=O)Nc1ccc(S(=O)(=O)[C@H]2CS(=O)(=O)C[C@@H]2NCc2ccco2)cc1
→ -0.54, -0.64
> CSc1ccc(/C=N/NC(=O)c2cc(C)[nH]n2)cc1
→ /, -0.51
> CCOc1ccc2nc(Nc3nc4ccccc4c(=O)[nH]3)nc(C)c2c1
→ /, 2.87
> C=CCN1CC(=O)c2ccccc2S1(=O)=O
→ 1.2, -1.19
> COc1ccc(NC(=S)NC(=O)c2ccccc2)c([N+](=O)[O-])c1
→ /, -1.22
> COc1ccc(C2C3=C(CCCC3=O)Nc3nc(SCc4cccc(F)c4)nn32)cc1 (centres undefined)
→ 0.75, -1.17
> CCOC(=O)c1oc2ccc3c(c2c1C)C(=O)CC(C)(CC)O3 (centres undefined)
→ 0.6, 0.85
> CCOC(=O)C1CCN(C(=O)c2oc3ccc4c(c3c2C)C(=O)CC2(CCCCC2)O4)CC1
→ 0.08, 0.33
> Cc1cc(C)n2ncc(C(=O)Nc3ccc4c(c3)OCCO4)c2n1
→ 1.43, /
> COc1cccc(N2C(=O)c3cccc4cccc(c34)C2=O)c1
→ 1.09, -1.6
> COc1ccc(C2OCC3(CO2)SC2=NCN(C)CN2C3=O)cc1OC (centres undefined)
→ /, -1.97
> CCCCN(C)C(=O)CN1C(=O)CCSc2ccccc21
→ 1.3, 0.22
> COc1ccc(OC(=O)c2ccc3ncccc3c2)cc1
→ /, 0.69
> CCc1nonc1NC(=O)c1oc2ccc(F)cc2c1C
→ -0.72, -2.25
> COc1ccc(-c2nn(Cc3nc(-c4ccc(OC)cc4OC)oc3C)c(=O)c3noc(C)c23)cc1
→ -0.15, /
> COc1cc(CNC(C)(C)CO)cc(Br)c1OCc1ccc(F)cc1
→ 4.21, -0.87
> Cc1c(NS(=O)(=O)c2ccc3c(c2)NC(=O)CO3)c(=O)n(-c2ccccc2)n1C
→ 1.88, /
> CCCCNc1ncnc2c1cnn2-c1ccc(F)cc1
→ 1.52, /
> Cc1cc(C)n(CC(=O)NCc2ccc3c(c2)OCO3)c(=O)c1C#N
→ 1, /
> COc1ccc2c(c1)CC(NC(=O)Nc1cccc(SC)c1)CO2 (centres undefined)
→ 1.9, /
> O=C(c1ccc(CS(=O)c2cccc(Cl)c2)o1)N1CCC(N2CCCCC2)CC1 (centres undefined)
→ 1.11, /
> COCCn1c(C2CC(=O)N(c3ccccc3)C2)nc2ccccc21 (centres undefined)
→ 2.09, -1.79
> O=C1C2CCCCC2C(=O)N1CC(=O)N1CCc2ccccc21 (centres undefined)
→ -0.1, 0.34
> Cc1ccc(-c2c(C(F)(F)F)nn3c(N4CCOCC4)cc(C)nc23)cc1
→ -0.49, -1.13
> CCC1=C/C(=C\c2ccc3c(c2)OCO3)C(=O)S1
→ -0.21, -0.92
> COc1ccc2oc(C(O)c3c(C)oc4ccc(OC)cc34)cc2c1 (centres undefined)
→ -0.12, -0.51
